Assay outcomes: PubChem, ICCB-Longwood Screening Facility, Harvard Medical School
GIV-Gai inh = blocks GIV peptide binding to rat Galpha-i3 | hit rate 0.42% among 210,000 | P08753 | AID 1224905 | percent of control (FP), % (no concentration beside the values) | Galpha-i3/FITC-GIV peptide fluorescence polarization, 90 min; hits give low values; scaled: aluminum fluoride 0%, vehicle 100%;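 active = replicate mean at 85% of control or lower, very high polarization wells dropped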;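 note: wells of about 15 µL received 100 nL stock; the first replicate is given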
Target sequence (P08753 whole entry, looked up): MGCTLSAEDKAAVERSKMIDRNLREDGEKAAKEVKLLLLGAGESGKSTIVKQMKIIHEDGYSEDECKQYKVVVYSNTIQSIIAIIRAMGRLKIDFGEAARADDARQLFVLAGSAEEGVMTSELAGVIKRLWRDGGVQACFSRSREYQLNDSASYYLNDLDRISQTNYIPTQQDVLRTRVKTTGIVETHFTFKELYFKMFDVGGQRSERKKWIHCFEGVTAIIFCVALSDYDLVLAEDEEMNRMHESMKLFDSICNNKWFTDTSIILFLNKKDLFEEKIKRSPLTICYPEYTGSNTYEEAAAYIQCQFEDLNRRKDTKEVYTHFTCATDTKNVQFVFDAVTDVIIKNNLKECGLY
* hit, by the source's call.

SMILES	GIV-Gai inh
CCOC(=O)CSc1nc(NCc2ccc(OC)cc2)c2ccccc2n1	106
O=c1c2ccccc2nc(SCc2cccnc2)n1CCc1ccccc1	98
CCCCC(=O)NCc1nc2cccnc2n1CCOC	102
COCc1cc(C)nc2sc(C(=O)Nc3cccc4ccccc34)c(N)c12	109
N#Cc1cc2c(nc1SCC(O)CS(=O)(=O)Cc1ccc(Cl)cc1)CCCC2 (configuration not stated)	105
N#CC1=C(N)Oc2n[nH]c(-c3ccc(Br)cc3)c2C1c1cn[nH]c1-c1ccc(F)cc1 (configuration not stated)	108
CCOc1ccc(-n2cc(C(=O)O)c3cc(OC)c(OC)cc3c2=O)cc1	111
O=C(Nc1ccc(-c2noc(-c3cccc([N+](=O)[O-])c3)n2)cc1)c1cccc(Cl)c1	100
Cc1ccccc1C(=O)Nc1cccc(OCc2cc(=O)n3ccccc3n2)c1	103
CC1=C(C(=O)Nc2ccccc2)C(c2ccco2)C(C#N)=C(SCC(=O)Nc2ccc(Cl)c(Cl)c2)N1 (configuration not stated)	113
CCCCCCCCCCCCOC=C1c2cc([N+](=O)[O-])cc([N+](=O)[O-])c2-c2c1cc([N+](=O)[O-])cc2[N+](=O)[O-]	101
O=C1C2C(c3ccccc3)OC3(C(=O)c4ccccc4C3=O)C2C(=O)N1c1cccc(F)c1 (configuration not stated)	103
CC(=O)Nc1ccc(-c2noc(C3CCCN(C(=O)CCC4CCCC4)C3)n2)cc1 (configuration not stated)	105
CCOc1cc(C2Nc3ccc(CC)cc3[C@H]3OCC[C@@H]23)cc(Br)c1OC (some centres not stated)	101
CCOC(=O)C1=C(CSc2nc(N)c(C#N)c(-c3cccs3)c2C#N)OC(N)=C(C#N)C1c1ccccc1 (configuration not stated)	115
COc1cccc([C@H]2[C@H](C(=O)C34CC5CC(CC(C5)C3)C4)N3C=Cc4ccccc4[C@H]3C2(C#N)C#N)c1	118
O=C(CSc1nnc(NC(=O)NC2CCCCC2)s1)NC1CCCC1	101
CCOc1ccccc1NC(=O)c1cc(S(=O)(=O)N2CCN(c3ccccc3OC)CC2)ccc1F	104
CC(C)NC(=O)CCn1c(=O)c2ccccc2n2c(=O)n(Cc3ccc(F)cc3)nc12	103
O=S(=O)(c1cccn2c(SCc3ccccc3)nnc12)N1CCN(c2ccc(F)cc2)CC1	101
Cc1ccc(Nc2cc(C)nc(N3CCN(C(=O)Nc4cccc(Cl)c4)CC3)n2)cc1	103
Cc1cc(-c2cc(S(=O)(=O)NCCc3ccc(Cl)cc3)c(C)s2)n[nH]1	95
COc1nc(C)nc(NC(=O)NS(=O)(=O)c2c(Cl)nc(C)c(Cl)c2C)n1	116
Cc1cccc(NC(=O)CSC2=NC(=O)C(Cc3ccccc3)C(=O)N2)c1 (configuration not stated)	112
O=c1c2ccc(N/N=C/c3c4ccccc4cc4ccccc34)c3cccc(c32)c2nc3ccccc3n12	133
Cc1nc(-c2ccc3c(c2)n(CC(=O)N2CCn4c2nc2ccccc24)c(=O)n3C(C)C)no1	108
O=C(CSc1nc2[nH]ncc2c(=O)n1-c1ccccc1)Nc1ccc(-c2nc3ccccc3o2)cc1	110
CCCn1c(CCc2cccc(NS(=O)(=O)c3cnn(CC)c3)c2)nc2ccccc21	94
CC12CCC(C(=O)N(c3ccc(Cl)cc3Cl)C1=O)C2(C)C (configuration not stated)	111
CCCCn1c(CNC(=O)c2cccs2)nnc1SCC(=O)Nc1sc2c(c1C(=O)OCC)CCCC2	108
CC(=O)C1=NN(c2cccc(Cl)c2C)C2(S1)SC(c1ccccc1)(c1ccccc1)c1ccccc12 (configuration not stated)	102
Cc1cc(-n2c(C)nc3ccccc3c2=O)ccc1NC(=O)C(C)(C)C	97
Cc1ccc(Nc2nc(NCC(C)O)nc3c2cnn3-c2ccccc2)cc1 (configuration not stated)	104
CC(CCc1ccccc1)NC(=O)C1(c2ccccc2)CCOCC1 (configuration not stated)	108
COC(=O)c1cc(Oc2ncnc3scc(-c4ccccc4)c23)cc(C(=O)OC)c1	103
Cc1ccccc1CS/C(Nc1ccccc1)=C(\C#N)C(=O)Nc1ccccc1	105
Fc1cccc(C2Nc3cccc4cccc(c34)N2)c1	102
CC(C)(C)c1ccc(S(=O)(=O)Nc2ccc3oc4c(c3c2)CCCC4)cc1	109
O=C(c1nc(-c2ccc(S(=O)(=O)N3CCCC3)cc2)no1)N1CCCC1	105
Cc1nc2sc(C#N)c(N)c2c(C)c1CC(=O)c1ccc(Br)cc1	99
CCN(c1ccccc1)S(=O)(=O)c1ccc2[nH]cc(C(=O)N(Cc3ccco3)CC3CCCO3)c(=O)c2c1 (configuration not stated)	103
Cc1nc2ncnn2c(Sc2ccc(NS(=O)(=O)c3ccc(C(C)(C)C)cc3)cc2)c1C	107
Cc1noc2nc(CCC(=O)NCCC3=CCCCC3)nc(N3CCOCC3)c12	101
Nc1c(C(=O)Nc2nccs2)sc2nc3c(c(-c4ccco4)c12)CCC3	108
O=C(CN1C(=O)c2ccccc2C1=O)Nc1cc(Cl)ccc1OCc1cc(=O)n2ccsc2n1	116
COc1ccc(OC)c(C2CC(=O)Nc3c2cnn3-c2ccc3nnc(C)n3n2)c1 (configuration not stated)	103
N#Cc1c(NC(=O)c2cccnc2Cl)sc2c1CCCCC2	104
Cc1ccc(CN(Cc2cc(=O)n3cc(C)sc3n2)CC(C)C)cc1	100
CCC(=O)N1c2ccc(C)cc2C2=C(SC(C(=O)OC)=C(C(=O)OC)C23SC(C(=O)OC)=C(C(=O)OC)S3)C1(C)C	105
CCOCC(=O)N1CCc2c(c(C(=O)N3CCCC(C(=O)Nc4ccccc4)C3)nn2C)C1 (configuration not stated)	103
CC1(C)c2ssc(=S)c2-c2ccccc2N1C(=O)CCC1CCCCC1	108
O=c1ccn(-c2cccc(F)c2)nc1-c1nc(-c2ccccc2Br)no1	100
Cc1noc(C)c1S(=O)(=O)N1CCCn2nc(-c3cccc(C(F)(F)F)c3)cc2C1	101
Clc1cccc(-n2cc(-c3ccccc3)c3c(N4CCC5(CC4)OCCO5)ncnc32)c1	101
CCOC(=O)N1CCN(C(=O)c2ccc(Cn3c(=S)[nH]c4cc(C(=O)OC)ccc4c3=O)cc2)CC1	108
COc1ccc(C2=N/C(=C\c3ccc(OC(C)=O)cc3)C(=O)O2)c(Br)c1	100
CCN(CC)C(=O)CSc1nc2c(sc(=S)n2-c2ccccc2)c(=O)n1Cc1ccco1	108
c1nc2c(c(N3CCN(Cc4ccoc4)CC3)n1)CCC2	99
CCOC(=O)CN=C1CC(C)(C)CC2=C1Sc1ncnc(OC)c1N2	96
CN1C(=O)N(CN2CCCCC2)C2C1N(C)C(=O)N2CN1CCCCC1 (configuration not stated)	105

Part of the list above, in markdown:
| molecule | GIV-Gai inh |
| --- | --- |
| Cc1ccc(CN(Cc2cc(=O)n3cc(C)sc3n2)CC(C)C)cc1 | 100 |
| CCC(=O)N1c2ccc(C)cc2C2=C(SC(C(=O)OC)=C(C(=O)OC)C23SC(C(=O)OC)=C(C(=O)OC)S3)C1(C)C | 105 |
| CCOCC(=O)N1CCc2c(c(C(=O)N3CCCC(C(=O)Nc4ccccc4)C3)nn2C)C1 (configuration not stated) | 103 |
| CC1(C)c2ssc(=S)c2-c2ccccc2N1C(=O)CCC1CCCCC1 | 108 |
| O=c1ccn(-c2cccc(F)c2)nc1-c1nc(-c2ccccc2Br)no1 | 100 |

Continued:
SMILES	GIV-Gai inh
O=C(c1ccc2ccnc(N3CCN(c4ccccc4)CC3)c2c1)N1CCN(c2ncccn2)CC1	104
Cc1ccc(C)c(-c2csc(Cc3nc(-c4ccc(F)cc4)no3)n2)c1	116
COc1ccc2nc(NC(=O)CCN3C(=O)c4ccccc4C3=O)sc2c1	112
O=C(Nc1cccc(F)c1)c1ccc(-c2cnc(NC3CCCCC3)nc2)cc1	106
CCc1onc(C)c1C1CCCN1C(=O)c1cc(C)no1 (configuration not stated)	96
CNc1ncnc2c1cnn2-c1ccc(C)cc1	98
Cc1cccc(N2C(=O)c3sc4nnc(-c5ccccc5)c(=O)n4c3C2=O)c1C	113
CC(C)NC(=O)c1ccc2c(=O)n(CCc3ccccc3)c(SCc3ccccc3F)nc2c1	104
COc1ccccc1C(=O)NCc1nnc(SCC(=O)N2N=C(c3cccs3)CC2c2ccc(C)cc2)n1C (configuration not stated)	109
Cc1ccc(Cl)cc1N1C(=O)C2C(c3ccccc3)OC3(C(=O)c4ccccc4C3=O)C2C1=O (configuration not stated)	111
COC(=O)C1C(=O)NC(SCC(=O)Nc2ccc(C(C)=O)cc2)=C(C#N)C1c1ccc(C(C)C)cc1 (configuration not stated)	101
Cc1ccc(C(=O)NCC(c2ccc3c(c2)OCO3)N2CCN(c3ccccc3F)CC2)cc1 (configuration not stated)	107
COc1ccc(C2(CNC(=O)CC#N)CCCC2)cc1OC	105
Cc1cc(N2C(=O)CSC2c2cc3c(cc2[N+](=O)[O-])OCO3)ccc1Br (configuration not stated)	119
O=C(C1CCN(c2cncnc2N2CCOCC2)CC1)N1CCCC1	110
CCOc1ccc(-c2nc(CN3CCN(C(=O)Nc4cc(C)ccc4C)CC3)c(C)o2)cc1	100
COc1cccc(NS(=O)(=O)c2cc(C(=O)N3CCN(c4ccc(F)cc4)CC3)ccc2NCc2ccc(F)cc2)c1	105
CCOc1ccc(-c2noc(Cc3nc(-c4cccc(OC)c4)cs3)n2)cc1	102
CC(C)(C)C1CCc2c(sc3c2c(=O)n(-c2ccccc2)c2nnc(SCc4ccc(Cl)c(Cl)c4)n32)C1 (configuration not stated)	109
Cc1cc(Br)ccc1NC(=O)Cn1c(=O)c2ccccc2n(C)c1=O	106
CCCn1c(SCc2cc(=O)n3ccccc3n2)nc2c(-c3ccccc3)cn(C)c2c1=O	107
CC(=O)N1N=C(c2ccc(Cl)cc2)OC1c1ccc2c(c1)OCO2 (configuration not stated)	108
CN1C(=O)N(C)C2(c3ccccc3)Nn3c(s/c(=C/c4ccc(Br)cc4)c3=O)=NC12c1ccccc1 (configuration not stated)	105
CC(C)NC(=O)NC1CCN(C(=O)C2CCCC2)C1 (configuration not stated)	103
CCCCC(=O)Nc1cc(-c2ccccc2)nn1-c1ccccc1	105
Cc1cccc(NC(=O)COc2ccc(-c3cnc4ccccc4n3)cc2)c1	102
CCOC(=O)c1ccc(N2N=C(C(F)(F)F)/C(=C/c3ccc(N4CCOCC4)cc3)C2=O)cc1	107
c1ccc2nc3c(nc2c1)[nH]c1ccccc13	111
c1ccc(-c2nc3nc(-c4ccccc4)c(-c4ccccc4)n3nc2-c2ccccc2)cc1	-31*
CCOC(=O)C1=C(c2ccccc2)OC(N)=C(C#N)C1c1ccc(C)cc1 (configuration not stated)	100
CC(=O)OCC1OC(n2cc(F)c(=O)[nH]c2=O)C(OC(C)=O)C(OC(C)=O)C1OC(C)=O (configuration not stated)	105
CCc1ccccc1NC(=O)CSC1=C(C#N)C(c2cc(OC)c(OC)c(OC)c2)C(C(=O)OC)C(=O)N1 (configuration not stated)	105
Fc1ccc(Nc2nc3nonc3nc2Nc2ccc(F)cc2)cc1	101
COc1ccc(-c2cc(-c3ccccc3)c(C#N)c(SCC(=O)N3CCN(C)CC3)n2)cc1	100
O=C(OCC1OC(n2cc(F)c(=O)[nH]c2=O)C(OC(=O)c2ccccc2)C1OC(=O)c1ccccc1)c1ccccc1 (configuration not stated)	112
O=C(CSc1nc2ccc(Br)cc2c2nc3ccccc3n12)NCC1CCCO1 (configuration not stated)	119
O=C(COC(=O)c1ccccc1N1C(=O)C2C3C=CC(C3)C2C1=O)c1ccccc1 (configuration not stated)	107
COc1cc(NC(=O)Nc2nnc(CC(=O)N3CCCC3)s2)cc(OC)c1	108
COc1ccc(OC)c(S(=O)(=O)N(C)CC2(C)CCOCC2)c1	101
C=CCNc1ncnc2c1sc1nc(N3CCOCC3)c3c(c12)CC(C)(C)OC3	108

Arranged by the number under GIV-Gai inh (descending): 3 from the list above
mol,GIV-Gai inh
CC(=O)OCC1OC(n2cc(F)c(=O)[nH]c2=O)C(OC(C)=O)C(OC(C)=O)C1OC(C)=O (configuration not stated),105
Cc1cccc(NC(=O)COc2ccc(-c3cnc4ccccc4n3)cc2)c1,102
c1ccc(-c2nc3nc(-c4ccccc4)c(-c4ccccc4)n3nc2-c2ccccc2)cc1,-31*

Further results follow:
SMILES	GIV-Gai inh
O=[N+]([O-])c1cc(S(=O)(=O)O)cc2c1-c1c(cc(S(=O)(=O)O)cc1[N+](=O)[O-])C2	86
O=C1CC(c2ccc(F)c(Br)c2)c2cnn(-c3nc4ccccc4s3)c2N1 (configuration not stated)	96
CCn1c(CCc2cccc(NS(=O)(=O)c3cc(C)ccc3NC(C)=O)c2)nc2ccccc21	100
CCCCCCN1C(=O)C(=O)/C(=C(\O)c2ccc(C)cc2)C1c1ccc(Cl)cc1 (configuration not stated)	123
O=S(=O)(c1ccc(F)cc1F)N1CCC(N2CCOCC2)CC1	105
CCOC(=O)c1nnn(-c2nc(OC)nc(N3CCCCC3)n2)c1C	108
O=C(O)CN1C(=O)/C(=C2/C(=O)N(CC(=O)O)c3ccc(Br)cc32)SC1=S	106
Cc1ccc(Cn2cccc(S(=O)(=O)N3CCCC3)c2=O)cc1	108

A portion of the library; count on the stated rates, not on these rows.
